Bioassay records: PubChem BioAssay, Broad Institute
Yeast UUG start: yeast start codon fidelity modulation; S. cerevisiae UUG-firefly luciferase reporter, luminescence/redox ratio; activity score, % at 18.7 µM; actives 0.13% (n = 350,000); AID 602363;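 active = replicate mean at a twofold rise or more, about +100% in these data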;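 note: firefly luciferase made from a UUG start codon reports start codon fidelity; reporter light over untreated wells divided by growth signal over untreated wells; some hits fall short of that in this replicate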
Env fusion inh: HIV envelope-mediated fusion inhibition | HeLa-JRFL Env/CEM21 cell fusion, luciferase | inhibition, % at 12.3 µM | actives 1.1% (n = 360,000);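 active = mean replicate inhibition score of at least 50 and every replicate individually at or above 50; inconclusive = only one of the two criteria met; inactive = mean below 50 and not all replicates reaching 50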;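 note: 0% = plate neutral controls and 100% = maraviroc near 300 nM; one replicate is shown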
Numbers without * were called inactive; [ ] = another dose, or the depositor's remark. These rows are one share of the data (hit frequency here may not be typical).

For O=C(C[C@H]1CC[C@H](NC(=O)c2cccnc2)[C@H](CO)O1)NCc1ccc(Cl)c(Cl)c1 the results were Yeast UUG start -10 and Env fusion inh 9[16.7 µM].
Screening COc1ccccc1-c1cnc2c(c1)C(=O)N([C@H](C)CO)C[C@@H](C)[C@@H](CN(C)Cc1ccncc1)O2 returned Yeast UUG start -8 and Env fusion inh -9[16.7 µM].
`CC(C)NC(=O)N(C)C[C@@H]1Oc2ncc(-c3ccc(F)cc3)cc2C(=O)N([C@H](C)CO)C[C@@H]1C` gave Yeast UUG start 12 and Env fusion inh 12[16.7 µM].
Screening CCC(=O)Nc1ccc2c(c1)OC[C@H](C)N(C(=O)C1CC1)C[C@H](C)[C@H](OC)CN(C)C2=O returned Yeast UUG start 33 and Env fusion inh -12[16.7 µM].
For COCC#Cc1cnc2c(c1)C(=O)N([C@@H](C)CO)C[C@H](C)[C@@H](CN(C)C(=O)Cc1cccnc1)O2 the results were Yeast UUG start -1 and Env fusion inh 6[16.7 µM].
Screening C[C@@H]1CCCCO[C@@H](CN(C)CC2CCCCC2)[C@@H](C)CN([C@@H](C)CO)C(=O)c2cc(NC(=O)CCCN(C)C)ccc2O1 returned Yeast UUG start 21 and Env fusion inh 5[16.7 µM].
`C[C@H](CO)N1C[C@H](C)[C@@H](CN(C)C(=O)Nc2ccc(C(F)(F)F)cc2)Oc2ncc(C#C[C@@H](C)O)cc2C1=O` gave Yeast UUG start 6 and Env fusion inh -7[16.7 µM].
Screening CC(=O)N(C)C[C@@H]1Oc2cc(-c3ccccc3F)ccc2S(=O)(=O)N([C@H](C)CO)C[C@@H]1C returned Yeast UUG start -6 and Env fusion inh 14[16.7 µM].
Screening COc1ccc(CN(C)C[C@@H]2OCCCC[C@@H](C)Oc3ccc(NS(C)(=O)=O)cc3C(=O)N([C@@H](C)CO)C[C@@H]2C)cc1 returned Yeast UUG start 9 and Env fusion inh -18[16.7 µM].
`CCNC(=O)Nc1ccc2c(c1)C(=O)N(C)[C@H]1CC[C@H](CC(=O)Nc3cccc(F)c3)O[C@@H]1CO2` gave Yeast UUG start 4 and Env fusion inh -19[16.7 µM].
COCC(=O)N[C@@H]1CC[C@@H](CC(=O)NCc2ccc(Cl)cc2)O[C@@H]1CO was read as Yeast UUG start -13 and Env fusion inh 10[16.7 µM].
CCCC(=O)Nc1ccc2c(c1)C(=O)N(C)C[C@@H](OC)[C@@H](C)CN(Cc1cncnc1)[C@@H](C)CO2 was read as Yeast UUG start -20 and Env fusion inh 7[16.7 µM].
`C[C@@H]1CCCCO[C@@H](CN(C)C(=O)Nc2ccc(F)cc2)[C@@H](C)CN([C@H](C)CO)C(=O)c2cc(NC(=O)NC3CCCCC3)ccc2O1` gave Yeast UUG start -20 and Env fusion inh 27[16.7 µM].
Screening C[C@@H]1CN([C@@H](C)CO)S(=O)(=O)c2ccc(C#CC3CCCC3)cc2O[C@@H]1CN(C)C(=O)C1CC1 returned Yeast UUG start 18 and Env fusion inh -5[16.7 µM].
Screening C[C@@H]1CCCCO[C@H](CN(C)C(=O)Nc2ccc3c(c2)OCO3)[C@@H](C)CN([C@H](C)CO)C(=O)c2cc(N(C)C)ccc2O1 returned Yeast UUG start 2 and Env fusion inh 19[16.7 µM].

Brought forward from above: 2 entries, followed by the next part.
Screening C[C@@H]1CN([C@@H](C)CO)S(=O)(=O)c2ccc(C#CC3CCCC3)cc2O[C@@H]1CN(C)C(=O)C1CC1 returned Yeast UUG start 18 and Env fusion inh -5[16.7 µM].
Screening C[C@@H]1CCCCO[C@H](CN(C)C(=O)Nc2ccc3c(c2)OCO3)[C@@H](C)CN([C@H](C)CO)C(=O)c2cc(N(C)C)ccc2O1 returned Yeast UUG start 2 and Env fusion inh 19[16.7 µM].
C=CCOC(=O)[C@@H]1[C@H]2C(=O)O[C@H](c3ccccc3)[C@H](c3ccccc3)N2[C@H](c2ccc(OCCOC(=O)[C@@H]3C[C@@H]4C(=O)N[C@@H](Cc5ccccc5)C(=O)N4[C@@H]3c3ccc(O)cc3)cc2)[C@@]12C(=O)Nc1ccc(I)cc12 was read as Yeast UUG start -8 and Env fusion inh 2[16.7 µM].
For C=CC(COC(C)=O)NS(=O)(=O)c1ccc(Br)cc1 (stereo not drawn) the results were Yeast UUG start -12 and Env fusion inh -4[16.7 µM].
Screening COc1ccc(NC(=O)N(C)C[C@@H]2OCCCC[C@H](C)Oc3ccc(NC(=O)c4ccncc4)cc3C(=O)N([C@@H](C)CO)C[C@@H]2C)cc1 returned Yeast UUG start 7 and Env fusion inh 21[16.7 µM].
For C[C@@H]1CCCCO[C@@H](CN(C)C(=O)Nc2ccccc2)[C@@H](C)CN([C@H](C)CO)C(=O)c2cc(NC(=O)c3ccncc3)ccc2O1 the results were Yeast UUG start 9 and Env fusion inh 16[16.7 µM].
Screening C[C@H](CO)N1C[C@H](C)[C@@H](CN(C)Cc2ccccc2)Oc2ncc(C#Cc3ccccn3)cc2C1=O returned Yeast UUG start -13 and Env fusion inh -16[16.7 µM].
For C[C@H](CO)N1C[C@H](C)[C@H](CN(C)S(=O)(=O)c2ccc(Cl)cc2)Oc2ccc(NS(C)(=O)=O)cc2C1=O the results were Yeast UUG start -3 and Env fusion inh 12[16.7 µM].
C[C@H](CO)N1C[C@H](C)[C@@H](CN(C)Cc2cccc(F)c2)Oc2ncc(-c3cccc(F)c3)cc2C1=O was read as Yeast UUG start -11 and Env fusion inh 15[16.7 µM].
`Cc1noc(C)c1S(=O)(=O)Nc1ccc2c(c1)CC(=O)N([C@@H](C)CO)C[C@@H](C)[C@@H](CN(C)C(=O)NC1CCCCC1)O2` gave Yeast UUG start 14 and Env fusion inh -9[16.7 µM].
C[C@H]1CN([C@@H](C)CO)C(=O)c2cc(NC(=O)Cc3ccccc3)ccc2O[C@@H]1CN(C)S(C)(=O)=O was read as Yeast UUG start -11 and Env fusion inh 2[16.7 µM].
Screening O=C(C[C@@H]1C[C@H]2c3cc(NC(=O)C4CCOCC4)ccc3O[C@H]2[C@@H](CO)O1)NCc1ccccc1F returned Yeast UUG start -23 and Env fusion inh 21[16.7 µM].
CC(C)NC(=O)N(C)C[C@H]1Oc2ccc(N(C)C)cc2C(=O)N([C@H](C)CO)C[C@H]1C was read as Yeast UUG start 5 and Env fusion inh -17[16.7 µM].
Screening C[C@H](CO)N1C[C@H](C)[C@@H](CN(C)Cc2ccc(C(F)(F)F)cc2)Oc2ccc(NC(=O)C3CC3)cc2C1=O returned Yeast UUG start -11 and Env fusion inh -2[16.7 µM].
O=C(C[C@@H]1CC[C@H](NC(=O)C2CC2)[C@H](CO)O1)NCC1CC1 was read as Yeast UUG start 0 and Env fusion inh 3[16.7 µM].
CC(C)NC(=O)Nc1ccc2c(c1)C(=O)N([C@H](C)CO)C[C@@H](C)[C@@H](CN(C)S(=O)(=O)c1ccc(Cl)cc1)OCCCC[C@H](C)O2 was read as Yeast UUG start -2 and Env fusion inh -8[16.7 µM].
Screening C[C@@H]1CN([C@@H](C)CO)C(=O)Cc2cc(NS(=O)(=O)c3ccccc3)ccc2O[C@H]1CN(C)Cc1ccc(-c2ccccc2)cc1 returned Yeast UUG start 15 and Env fusion inh 19[16.7 µM].
`C[C@@H]1CN([C@H](C)CO)S(=O)(=O)c2ccc(-c3ccc(F)cc3)cc2O[C@H]1CN(C)C(=O)c1ccccc1F` gave Yeast UUG start 10 and Env fusion inh 4[16.7 µM].
O=C(C[C@H]1CC[C@H](NS(=O)(=O)c2cccc(F)c2)[C@@H](CO)O1)NCc1ccc2c(c1)OCO2 was read as Yeast UUG start -7 and Env fusion inh -19[16.7 µM].
For C[C@@H]1CCCCO[C@H](CN(C)Cc2ccc(C(F)(F)F)cc2)[C@@H](C)CN([C@H](C)CO)C(=O)c2cc(NS(=O)(=O)c3ccc(Cl)cc3)ccc2O1 the results were Yeast UUG start 14 and Env fusion inh -14[16.7 µM].
Screening O=S(=O)(NCC[C@@H]1CC[C@@H](NS(=O)(=O)c2ccccc2Cl)[C@H](CO)O1)c1ccc(Cl)cc1 returned Yeast UUG start -9 and Env fusion inh 57*[16.7 µM].
COc1ccc(-c2cnc3c(c2)C(=O)N([C@H](C)CO)C[C@H](C)[C@H](CN(C)C(=O)NC2CCCCC2)O3)cc1 was read as Yeast UUG start 5 and Env fusion inh -13[16.7 µM].
Screening Cc1ccc(-c2ccc3c(c2)O[C@H](CN(C)Cc2ccncc2)[C@H](C)CN([C@@H](C)CO)S3(=O)=O)cc1 returned Yeast UUG start 9 and Env fusion inh inconclusive.
For C[C@@H]1CN([C@@H](C)CO)C(=O)c2cc(NC(=O)Cc3cn(C)c4ccccc34)ccc2O[C@@H]1CN(C)Cc1ccc(C(F)(F)F)cc1 the results were Yeast UUG start 2 and Env fusion inh -63[16.7 µM].
COc1ccc(CNC(=O)C[C@H]2CC[C@H]3[C@H](COc4ccc(NC(C)=O)cc4C(=O)N3C)O2)cc1 was read as Yeast UUG start -14 and Env fusion inh 5[16.7 µM].
C[C@H]1CN([C@@H](C)CO)C(=O)c2cc(NS(=O)(=O)c3cccs3)ccc2O[C@@H]1CN(C)Cc1ccc(C(=O)O)cc1 was read as Yeast UUG start -6 and Env fusion inh 5[16.7 µM].
Screening Cc1ccc(S(=O)(=O)N(C)C[C@H]2Oc3ncc(C#CCC(C)C)cc3C(=O)N([C@H](C)CO)C[C@@H]2C)cc1 returned Yeast UUG start 10 and Env fusion inh -6[16.7 µM].
`COc1ccccc1-c1cnc2c(c1)C(=O)N([C@@H](C)CO)C[C@H](C)[C@@H](CN(C)C(=O)CC1CC1)O2` gave Yeast UUG start 11 and Env fusion inh 16[16.7 µM].
COc1ccc(S(=O)(=O)Nc2ccc3c(c2)C(=O)N([C@H](C)CO)C[C@H](C)[C@@H](CN(C)C(=O)CCCN(C)C)OCCCC[C@@H](C)O3)cc1 was read as Yeast UUG start -7 and Env fusion inh 1[16.7 µM].
For COc1ccccc1-c1cn(CC[C@H]2CC[C@H](NC(=O)NC(C)C)[C@H](CO)O2)nn1 the results were Yeast UUG start 62 and Env fusion inh 7[16.7 µM].
`O=C(C[C@H]1CC[C@@H](NC(=O)c2ccc(F)cc2)[C@@H](CO)O1)NCCc1ccccc1` gave Yeast UUG start -10 and Env fusion inh 14[16.7 µM].
`COCC#Cc1ccc2c(c1)O[C@H](CN(C)S(=O)(=O)c1ccc(F)cc1)[C@H](C)CN([C@H](C)CO)S2(=O)=O` gave Yeast UUG start 5 and Env fusion inh 5[16.7 µM].

4 entries drawn at random from the list so far:
`Cc1noc(C)c1S(=O)(=O)Nc1ccc2c(c1)CC(=O)N([C@@H](C)CO)C[C@@H](C)[C@@H](CN(C)C(=O)NC1CCCCC1)O2` gave Yeast UUG start 14 and Env fusion inh -9[16.7 µM].
Screening C[C@H](CO)N1C[C@H](C)[C@@H](CN(C)Cc2ccc(C(F)(F)F)cc2)Oc2ccc(NC(=O)C3CC3)cc2C1=O returned Yeast UUG start -11 and Env fusion inh -2[16.7 µM].
For C[C@@H]1CCCCO[C@@H](CN(C)C(=O)Nc2ccccc2)[C@@H](C)CN([C@H](C)CO)C(=O)c2cc(NC(=O)c3ccncc3)ccc2O1 the results were Yeast UUG start 9 and Env fusion inh 16[16.7 µM].
`O=C(C[C@H]1CC[C@@H](NC(=O)c2ccc(F)cc2)[C@@H](CO)O1)NCCc1ccccc1` gave Yeast UUG start -10 and Env fusion inh 14[16.7 µM].

(more compounds)
Screening C[C@H]1CN([C@@H](C)CO)C(=O)c2cc(C#CC3(O)CCCC3)cnc2O[C@H]1CN(C)C(=O)Cc1ccncc1 returned Yeast UUG start -5 and Env fusion inh 13[16.7 µM].
For C[C@H](CO)N1C[C@H](C)[C@@H](CN(C)Cc2cncnc2)Oc2cc(/C=C/c3ccccc3)ccc2S1(=O)=O the results were Yeast UUG start -11 and Env fusion inh 36[16.7 µM].
Screening Cc1cccc(S(=O)(=O)N[C@H]2CC[C@@H](CCNC(=O)CCN3CCCCC3)O[C@@H]2CO)c1 returned Yeast UUG start 5 and Env fusion inh 9[16.7 µM].
`CN(C)CCCNC(=O)C[C@H]1CC[C@H](NC(=O)Cc2cccnc2)[C@H](CO)O1` gave Yeast UUG start -15 and Env fusion inh 1[16.7 µM].
Screening O=C(C[C@H]1C=C[C@H](NS(=O)(=O)c2ccc(F)cc2)[C@@H](CO)O1)NCCc1ccncc1 returned Yeast UUG start -15 and Env fusion inh -5[16.7 µM].
For C[C@@H]1CN([C@H](C)CO)C(=O)c2cccc(NC(=O)Nc3ccc4c(c3)OCO4)c2O[C@@H]1CN(C)Cc1ccc(C(F)(F)F)cc1 the results were Yeast UUG start 20 and Env fusion inh -142[16.7 µM].
Screening C[C@H]1CN([C@@H](C)CO)C(=O)c2cc(C#Cc3ccccc3F)cnc2O[C@H]1CN(C)C(=O)Cc1cccnc1 returned Yeast UUG start -10 and Env fusion inh 14[16.7 µM].
Cc1noc(C)c1NC(=O)Nc1cccc2c1O[C@@H](CN(C)Cc1ccc(Cl)c(Cl)c1)[C@H](C)CN([C@@H](C)CO)C2=O was read as Yeast UUG start 5 and Env fusion inh -34[16.7 µM].
`C[C@@H]1CCCCO[C@@H](CN(C)S(C)(=O)=O)[C@@H](C)CN([C@H](C)CO)C(=O)c2cc(NS(=O)(=O)c3ccc(Cl)cc3)ccc2O1` gave Yeast UUG start -3 and Env fusion inh -9[16.7 µM].
For O=C(Nc1cc(F)ccc1F)N[C@H]1CC[C@H](CCNC(=O)c2cnccn2)O[C@@H]1CO the results were Yeast UUG start 4 and Env fusion inh 11[16.7 µM].
`COc1ccc(NC(=O)Nc2ccc3c(c2)C(=O)N([C@@H](C)CO)C[C@H](C)[C@H](CN(C)C(=O)C2CCCCC2)OCCCC[C@@H](C)O3)cc1` gave Yeast UUG start -5 and Env fusion inh 16[16.7 µM].
`C[C@H](CO)N1C[C@H](C)[C@@H](CN(C)CC2CC2)Oc2ccc(NC(=O)CCC(F)(F)F)cc2CC1=O` gave Yeast UUG start -6 and Env fusion inh -2[16.7 µM].
